AF4-AF9 inh: inhibitors of human MLL-AF4/AF9 interaction. P42568. AlphaScreen, biotin-AF4 peptide binding to FLAG-AF9. inhibition, % at 10 µM. actives 0.47% (n = 350,000). AID 651704;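 active = every replicate reaching a set inhibition limit, whatever the replicate mean, cut at about 25% in these data; inconclusive = mean inhibition reaches that limit but some replicates miss it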;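 also: 0% = plate neutral control median and 100% = total signal loss; the record names both 10 and 1 µM as test concentration; the first replicate is given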
Target sequence (P42568 whole entry, looked up): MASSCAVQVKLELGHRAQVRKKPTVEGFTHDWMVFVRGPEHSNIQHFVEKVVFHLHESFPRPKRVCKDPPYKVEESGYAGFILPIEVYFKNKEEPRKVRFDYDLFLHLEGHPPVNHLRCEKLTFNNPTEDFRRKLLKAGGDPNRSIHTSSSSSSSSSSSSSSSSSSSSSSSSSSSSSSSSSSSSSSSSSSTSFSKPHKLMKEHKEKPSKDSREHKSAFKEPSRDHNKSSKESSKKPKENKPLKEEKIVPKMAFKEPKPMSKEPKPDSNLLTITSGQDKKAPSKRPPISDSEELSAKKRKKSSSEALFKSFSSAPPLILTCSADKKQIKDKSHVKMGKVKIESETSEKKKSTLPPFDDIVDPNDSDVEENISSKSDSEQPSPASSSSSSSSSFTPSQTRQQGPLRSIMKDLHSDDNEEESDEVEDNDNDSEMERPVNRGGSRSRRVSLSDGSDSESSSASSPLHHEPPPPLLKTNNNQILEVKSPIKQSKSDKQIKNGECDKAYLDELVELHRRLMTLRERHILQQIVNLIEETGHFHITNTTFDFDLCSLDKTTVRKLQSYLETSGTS
ALR inh: blocks human ALR sulfhydryl oxidase activity | P55789 | inhibition, % (concentration not given with the values) | AID 485317 | purified ALR, DTT oxidation, H2O2 HRP-luminol luminescence | actives 3.8% (n = 290,000);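 active = mean and each replicate at 75% or more; inconclusive = only one of the two met; inactive = neither met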;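 also: stock transfer was 7.5 nL into about 7.5 µL; 0% = neutral wells and 100% = wells with inactivated enzyme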
Target sequence (P55789 whole entry, looked up): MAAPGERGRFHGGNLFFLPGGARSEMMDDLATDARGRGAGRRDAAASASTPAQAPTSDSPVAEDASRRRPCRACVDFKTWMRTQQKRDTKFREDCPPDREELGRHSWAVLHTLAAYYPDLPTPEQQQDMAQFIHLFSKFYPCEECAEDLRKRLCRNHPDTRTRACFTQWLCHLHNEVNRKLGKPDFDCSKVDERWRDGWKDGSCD
Ecoli growth: E. coli growth inhibition | Escherichia coli growth, OD600, 23 h; hits give low values | OD600 absorbance (concentration not given with the values) | actives 0.21% (n = 330,000) | AID 1053175;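 active = OD600 absorbance below the run mean of sample wells minus 3.6 SD, in any replicate, cut at about 0.56 in these data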;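 also: stock transfer was 300 nL into about 60 µL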
Vif TR-FRET: inhibitors of Vif binding to APOBEC3G peptide, primary screen, biochemical, TR-FRET, GST-Vif 1-94, biotin-A3G peptide, dose response retest (AID 1117319); TR-FRET GST-Vif / biotin-A3G peptide binding; higher % means a stronger effect; test concentration not given here; strong numbers were not always called active; actives 0.57% (n = 260,000); inhibition, %, or IC50 in µM where a hit was titrated;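 active = above the screen mean plus three standard deviations and confirmed in dose response; inconclusive = results disagree or hit not tested in dose response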;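 also: Vif residues 1-94 fused to GST binding biotinylated APOBEC3G peptide 110-148; 0% = full assay without inhibitor and 100% = GST in place of GST-Vif; retest series ran down from 100 µM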
HNF4A DNA FP: change in binding of human HNF4 alpha to DNA; HNF4a-FITC DNA binding, fluorescence polarization, 1 h; P41235; AID 1224865; actives 0.3% (n = 360,000); activity change, % at 10 µM; in the data active = activity change above about 30%, passing the limit was not always enough;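 also: controls were the assay level and a saturating level of protein; the project sought stronger binding though the title names inhibitors; some compounds called inactive have numbers as strong as hits; positive values seem to mean higher polarization but the record does not say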
FGF22 binding: shifts melting point of recombinant human FGF22 | Q9HCT0 | recombinant FGF22 thermal shift, SYPRO orange fluorescence; percent of sucrose octasulfate shift, DMSO zero | calls only at 9.99 µM | actives 1.5% (n = 340,000);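 active = melting point raised past a set limit in the mean and every replicate; inconclusive = no clear call; three in four hits are not shown here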
Target sequence (Q9HCT0 whole entry, looked up): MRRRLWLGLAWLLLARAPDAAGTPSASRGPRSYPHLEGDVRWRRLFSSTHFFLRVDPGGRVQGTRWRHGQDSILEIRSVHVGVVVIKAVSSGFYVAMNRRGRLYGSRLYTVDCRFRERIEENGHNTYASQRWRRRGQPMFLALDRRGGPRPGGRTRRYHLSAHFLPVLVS
Ecoli rRNA inh: inhibitors of bacterial rRNA selective over humanized ribosomes; GFP signal change (wild-type ribosome), % (test concentration not listed); E. coli WT GFP vs humanized-ribosome RFP mutants, fluorescence, 24 h; hits give low values; DMSO median 0, no signal -100; actives 1.6% (n = 350,000);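 active = significant combined selectivity score with lowered wild-type GFP, culture density cut under 30%, mutant RFP and density less affected; inactive = any of these conditions unmet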; also: one replicate is shown; some compounds called inactive have numbers as strong as hits
Ecoli rRNA inh OD600: also measured in Ecoli rRNA inh; calls as there; OD600 change, %; measured here: OD600 growth;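 optical density of the mix in the first replicate; 0 = DMSO median and -100 = no signal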
Ecoli rRNA inh RFP: second read-out of Ecoli rRNA inh, no call of its own (marks repeat the call); RFP signal change, %; measured here: RFP humanized mutant strains;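 first replicate; 0 = DMSO median and -100 = no signal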
Starred values were filed as active, the others as inactive; i = inactive; ? = inconclusive; nt = not tested or not shown. Not all compounds are listed; rates above refer to the full screens.

SMILES	AF4-AF9 inh	ALR inh	Ecoli growth	Vif TR-FRET	HNF4A DNA FP	FGF22 binding	Ecoli rRNA inh	Ecoli rRNA inh OD600	Ecoli rRNA inh RFP
Nc1ccc(S(=O)(=O)N2CCc3ccccc32)cc1	-0.3	-2	0.61	nt	85*	i	-2	2	3.2
COC(=O)CCC(=O)c1oc2ccccc2c1NC(=O)CCCN1C(=O)c2ccccc2C1=O	nt	2	0.75	4%	0.6	nt	nt	nt	nt
CC1CC(C)CN(C(=O)c2cc3cc(Br)cc(Br)c3o2)C1 (configuration not stated)	-4.5	-3	0.65	nt	-1.3	i	-25	-40	29
CCC(ONc1ccccc1C(F)(F)F)(C(=O)NN(C)C)c1ccccc1 (configuration not stated)	6.4	-5	0.5	nt	1.9	i	9	14	1.6
O=C(Nc1nc(-c2ccncc2)cs1)C1c2ccccc2Oc2ccccc21	3.1	-7	0.71	6%	7.5	nt	-4	-3	-11
COc1cccc(C(=O)Nc2nnc(-c3ccccc3)s2)c1	-1.6	-3	0.65	-7%	4.4	i	2	13	-2.5
Cc1cccc(NC(=O)c2nc[nH]c2C(=O)N[C@@H](C)c2ccccc2)c1	9.0	-1	nt	nt	0.5	i	-9	-19	1.7
CC(NC(=O)Cc1ccc(S(=O)(=O)N2CCOCC2)s1)c1ccc(Cl)c(Cl)c1 (configuration not stated)	0.4	-2	0.69	-2%	4.0	i	-38	-56	-2.5

The listing continues:
SMILES	AF4-AF9 inh	ALR inh	Ecoli growth	Vif TR-FRET	HNF4A DNA FP	FGF22 binding	Ecoli rRNA inh	Ecoli rRNA inh OD600	Ecoli rRNA inh RFP
CCN(CC)CCCNC(=O)c1ccc(Cl)c(S(=O)(=O)Nc2ccccc2OC)c1	nt	-26	0.75	3%	1.7	nt	nt	nt	nt
COc1ccc(CN(C)C(C)C(=O)Nc2ccc(S(=O)(=O)N3CCOCC3)cc2)c(OC)c1 (configuration not stated)	-5.6	nt	0.65	-4%	1.8	i	7	2	1.1
O=C(NC1CC1)c1cc(F)c(F)cc1Cl	nt	-1	0.67	4%	0.7	nt	nt	nt	nt
COc1ccc(CC(=O)N/N=C/c2ccc(-c3ccc(F)cc3)o2)cc1OC	5.6	2	nt	1%	1.6	i	10	11	4.2
Cc1ccc2nc(SCC(=O)NCc3ccco3)[nH]c2c1	nt	0	0.68	?	1.9	nt	nt	nt	nt
Cc1cc(C)c(OCC(=O)NCC(C)(C)N2CCOCC2)c(C)c1	1.4	-2	0.61	-2%	-6.9	i	-1	6	1.2
N#Cc1ccc(-c2ccc3c(c2)[C@H]2[C@H](CCN2C(=O)C2CCCCC2)[C@H](CO)N3)cc1	0.5	nt	nt	nt	nt	i	-27	-54	17
CCOc1ccc(S(=O)(=O)Nc2nc3ccccc3nc2Cl)cc1	0.7	88*	0.64	-13%	1.0	i	11	-22	-3.0

The list goes on.
SMILES	AF4-AF9 inh	ALR inh	Ecoli growth	Vif TR-FRET	HNF4A DNA FP	FGF22 binding	Ecoli rRNA inh	Ecoli rRNA inh OD600	Ecoli rRNA inh RFP
COc1ccc(C#Cc2cccc(-c3nc(C(=O)N4CCN(C)CC4)cc4c3[C@H](CCO)N(S(=O)C(C)(C)C)C4)c2)cc1OC (some centres not stated)	3.0	nt	nt	nt	4.6	i	13	12	-0.1
CCc1cc2ccc(C)c(C)c2nc1SCC(=O)NNC(=O)c1ccco1	-0.7	2	0.69	nt	-0.1	i	-1	-16	4.3
O=C(CSc1nnc(-c2ccccc2)o1)N1CCOCC1	nt	-12	0.71	15%	4.1	nt	nt	nt	nt
Cc1ccc(OCC(=O)N/N=C2\CCOc3c(C)cccc32)cc1	-16	-11	nt	0%	1.9	i	-22	-27	-17
COc1ccc(CC(=O)NNc2ncnc3c2cnn3-c2ccccc2)cc1	2.0	-3	0.72	nt	2.1	i	nt	nt	nt
O=C(COC(=O)C(Cc1ccccc1)NC(=O)c1ccccc1)c1ccccc1 (configuration not stated)	1.4	-1	0.67	-15%	3.1	i	8	9	-1.1
C[C@H]1CN([C@@H](C)CO)C(=O)Cc2cc(NC(=O)c3ccncc3)ccc2O[C@H]1CN(C)C(=O)Nc1cccc2ccccc12	-3.7	nt	nt	nt	nt	i	0	-3	0.3
Cc1ccccc1C(OCC(O)CN1CCC(C(N)=O)CC1)c1ccccc1 (configuration not stated)	-8.0	-3	0.68	nt	0.2	i	6	13	-2.0

The list continues:
SMILES	AF4-AF9 inh	ALR inh	Ecoli growth	Vif TR-FRET	HNF4A DNA FP	FGF22 binding	Ecoli rRNA inh	Ecoli rRNA inh OD600	Ecoli rRNA inh RFP
C#CCn1c(=NC(=O)c2ccc(S(=O)(=O)N3CCc4ccccc4C3)cc2)sc2cc(S(N)(=O)=O)ccc21	nt	-1	0.7	-20%	-0.1	nt	nt	nt	nt
COc1ccccc1NS(=O)(=O)c1cc(NC(=O)c2ccc3ccccc3n2)ccc1Cl	nt	-11	0.69	3%	0.0	nt	nt	nt	nt
CC(=O)Nc1cccc(-c2csc(C(C)(O)c3ccc(F)c(F)c3)n2)c1 (configuration not stated)	0.1	nt	nt	nt	8.5	i	-50	-77	-14
CCn1c(=O)c2cc(C(=O)NCCN3CCOCC3)sc2c2ccccc21	-6.1	94*	0.76	15%	0.6	i	-3	-28	-3.5
c1ccc(-c2cc3c(N4CCOCC4)ncnc3s2)cc1	nt	97*	0.66	15%	2.9	nt	nt	nt	nt
Nc1c(Cl)cc(Cl)cc1C(=O)OCC(=O)N1CCCC1=O	nt	2	0.62	8%	-4.3	nt	nt	nt	nt
Cc1ccc(CNC(=O)CCCCCNc2nc(=S)[nH]c3ccccc23)cc1	-2.7	nt	0.71	-9%	nt	i	14	-3	-8.2
COc1cccc(NC(=O)Nc2nc(-c3ccc(OC)c(OC)c3)cs2)c1	0.3	nt	nt	nt	0.6	i	5	-19	0.8

Carrying on:
SMILES	AF4-AF9 inh	ALR inh	Ecoli growth	Vif TR-FRET	HNF4A DNA FP	FGF22 binding	Ecoli rRNA inh	Ecoli rRNA inh OD600	Ecoli rRNA inh RFP
Cc1ccc(C(=O)OC2CCS(=O)(=O)c3sccc32)cc1 (configuration not stated)	nt	0	0.69	69%	1.4	nt	nt	nt	nt
COc1ccc(CN(C(=O)c2nsc(Cl)c2Cl)C(C(=O)NC2CCCC2)c2ccc(C)cc2)cc1 (configuration not stated)	-0.6	-3	0.72	nt	-0.4	i	nt	nt	nt
CCN(CC)S(=O)(=O)N1CCC(C(=O)NCc2ccc(C)cc2)CC1	nt	-3	0.68	-6%	-0.9	nt	nt	nt	nt
COc1ccc(/C=N/NC(=S)Nc2ccccc2)cc1COc1ccccc1F	1.3	1	nt	-6%	nt	i	-4	-6	-9.1
CCCCC(O)(CCCC)C(=O)NN(C(=O)OCC)c1ccccc1	nt	-18	0.72	nt	0.7	nt	nt	nt	nt
O=S(=O)(NC1CCCCC1)c1cccc2nsnc12	1.7	-2	0.67	nt	0.2	i	1	-2	-1.1
Nc1ccc(C(=O)NCC(=O)O)cc1	1.8	-6	0.69	nt	-3.8	i	nt	nt	nt
Nc1c(C(=O)Nc2ccccc2)c2nc3ccccc3nc2n1CCCN1CCOCC1	-1.1	-14	0.61	12%	-2.5	i	nt	nt	nt

(listing goes on)
SMILES	AF4-AF9 inh	ALR inh	Ecoli growth	Vif TR-FRET	HNF4A DNA FP	FGF22 binding	Ecoli rRNA inh	Ecoli rRNA inh OD600	Ecoli rRNA inh RFP
NC(=O)C1CCN(c2ncnc3c(-c4ccccc4)nsc23)CC1	nt	5	0.76	-3%	6.2	nt	nt	nt	nt
CCC(C)(C)NC(=O)Cc1ccc(OC)c(OC)c1	nt	-9	0.7	-1%	0.4	nt	nt	nt	nt
O=C(CSc1nc2ccccc2[nH]1)N1CCN(c2ccccc2)CC1	nt	99*	0.72	24%	2.2	nt	nt	nt	nt
CC(=O)N(C)C[C@@H]1Oc2cc(C#CCC3CCCC3)ccc2S(=O)(=O)N([C@@H](C)CO)C[C@H]1C	4.3	nt	nt	nt	nt	i	-8	-45	9.9
O=c1nc(Nc2ccc(Br)cc2)sc2ccc([N+](=O)[O-])cc12	-7.5	-2	0.7	-6%	-5.3	i	1	6	2.2
O=C(Nc1nnc(Cc2ccc([N+](=O)[O-])cc2)s1)Nc1ccccc1F	-0.7	0	0.69	5%	-1.8	i	10	8	2.7
C[C@H](CO)N1C[C@H](C)[C@@H](CN(C)Cc2ccc(C(=O)O)cc2)Oc2ccc(NC(=O)Nc3ccccc3)cc2CC1=O	-2.4	nt	nt	nt	nt	i	4	8	1.9
CS(=O)(=O)c1ccc2nc(NC(=O)C3CCCO3)sc2c1 (configuration not stated)	-3.1	-8	0.7	-4%	-2.4	i	9	5	0.3

Other entries:
SMILES	AF4-AF9 inh	ALR inh	Ecoli growth	Vif TR-FRET	HNF4A DNA FP	FGF22 binding	Ecoli rRNA inh	Ecoli rRNA inh OD600	Ecoli rRNA inh RFP
C/C(=N\NS(=O)(=O)c1ccc(Br)cc1)c1ccc(-n2ccnc2)cc1	-0.4	nt	nt	nt	0.5	i	1	-6	-5.0
CCOc1ccccc1C(=O)NCC(=O)NCCCSc1ccccc1	-2.2	-6	0.72	2%	1.0	i	1	0	0.0
Cc1ccc(C(O)c2ncc(-c3ccc(Cl)cc3)[nH]2)cc1F (configuration not stated)	8.5	nt	nt	nt	1.5	i	-59	-77	-20
Cc1ccc(C)c(N2CCN(c3ccc4cc(S(=O)(=O)N5CCCCC5)ccc4n3)CC2)c1	-8.6	-1	0.69	nt	-2.6	i	4	7	-0.6
COc1cccc(N2CCN(C(=O)c3cc4ccc(OC)cc4[nH]3)CC2)c1	0.6	-22	0.69	-23%	1.1	i	-23	-20	0.6
O=C(/C(=C/O)N=Nc1ccc(Cl)cc1)c1ccncc1	nt	-6	0.73	?	-1.9	nt	nt	nt	nt
O=C(Nc1ccccc1F)c1ccc(C(=O)c2ccccc2)cc1	-0.5	4	0.73	nt	1.8	i	0	4	1.8
CO[C@@H]1CN(C)C(=O)c2cc(NC(=O)C3CCC3)ccc2OC[C@H](C)N(Cc2ccc(F)cc2)C[C@H]1C	1.6	nt	nt	nt	nt	i	0	-39	2.3

Other records follow:
SMILES	AF4-AF9 inh	ALR inh	Ecoli growth	Vif TR-FRET	HNF4A DNA FP	FGF22 binding	Ecoli rRNA inh	Ecoli rRNA inh OD600	Ecoli rRNA inh RFP
O=C(NC(=S)Nc1ccc(CN2CCOCC2)cc1)c1ccc([N+](=O)[O-])cc1	0.7	-6	0.72	nt	-3.6	i	17	2	-3.2
Cc1cc(C)cc(N(CC(=O)NCC2CCCO2)C(=O)CCC(=O)Nc2cc(C)on2)c1 (configuration not stated)	nt	nt	0.66	1%	-1.6	nt	nt	nt	nt
COc1cc(NC(=O)NCc2ccncc2)cc(OC)c1OC	nt	-5	0.7	6%	-0.4	nt	nt	nt	nt
COc1ccc(NC(=O)c2ccco2)c2ccccc12	0.4	-28	0.69	nt	-0.1	i	-4	-8	4.3
COc1ccc(-c2cc(C(=O)Nc3ccc(S(=O)(=O)Nc4onc(C)c4C)cc3)c3ccccc3n2)cc1OC	1.7	8	0.71	nt	0.7	i	-1	-3	0.5
CCOC(=O)C1CCCN(S(=O)(=O)c2cc3c4c(c2)CCN4C(=O)CC3)C1 (configuration not stated)	-17	-4	0.62	7%	1.8	i	1	10	-1.6
Cc1cccc(NC(=O)C(C)SCc2ccccc2)c1 (configuration not stated)	-0.8	50	0.68	nt	-0.4	i	-17	-11	-0.2
